Source: PubChem
ugtP null kill: compounds lethal to S. aureus RN4220 ugtP deletion mutant. OD600 growth, 16 h; some inactives read as strong as hits. growth inhibition, % (concentration not given with the values). 330,000 compounds, 0.54% hits. AID 1259309;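 active = z-score under -3 and OD600 up to 0.15 on both plates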;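 note: plate controls were untreated wells for no effect and antibiotic for full effect; wells of about 80 µL received 100 nL stock; the first replicate is given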
RN4220 kill: S. aureus RN4220 growth inhibition | 330,000 compounds, 0.33% hits | OD600, 16 h | inhibition, % (concentration not given with the values);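 active = z-score of -3 or lower and OD600 up to 0.18 on both plates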;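 note: plate controls were untreated cells for no effect and reference antibiotic for full effect; stock transfer was 100 nL into about 80 µL; one replicate is shown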
PrP UTR inh: suppresses PrP 5' UTR mRNA reporter expression; cell-based PrP 5' UTR mRNA reporter, plate reader; inhibition, % (test concentration not listed); 340,000 compounds, 0.35% hits;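 active = every replicate at 50% or more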;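 note: 0 = median of the neutral control wells; tested in H4 reporter cells; numbers are from one replicate; inactives centre near -14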
BJeLR lethal: kills HRASV12-expressing BJeLR cells. inhibition, % (no concentration beside the values). BJeLR (HRASV12) viability, CellTiter-Glo ATP luminescence, 48 h; reference of the scale not given here. 300,000 compounds, 0.17% hits;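 active = replicate mean above 50%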;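 note: 50 nL library stock added to about 25 µL; numbers are from one replicate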
Bead autofluor: flagged as autofluorescent in microsphere protease counterscreen. compound autofluorescence counterscreen, microsphere flow cytometry; stronger effect = higher value. fluorescence intensity (no concentration beside the values). 360,000 compounds, 3.1% hits;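 active = at least 3 SD above the mean of all compounds, about 16000 in these data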;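 note: 100 nL of 1 mM stock went into each well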
Mtb hypoxia rep: Mtb hypoxia fluorescent reporter inhibition | M. tuberculosis hypoxia-regulated fluorescent reporter, fluorescence | fluorescence inhibition, % (no concentration beside the values) | 300,000 compounds, 0.1% hits | AID 1159583;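 active = 35 to 45% if threefold the growth effect, above 45% if 1.5-fold the growth effect; inactive = the rest, general growth blockers included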;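 note: wells of about 50 µL received 100 nL stock; 0% = vehicle wells and 100% = reference inhibitor wells; whole bacteria with a GFP reporter of the hypoxia response; strong numbers were not always called active; many hits fall short of the cut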
Mtb hypoxia rep growth: second read-out of Mtb hypoxia rep, no call of its own (marks repeat the call); growth inhibition, %; measured here: M. tuberculosis growth (absorbance);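 0% = vehicle and 100% = reference antibiotic; read after six days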
* = called active by the depositor; x = not tested or not shown.

Each structure is followed by: ugtP null kill, RN4220 kill, PrP UTR inh, BJeLR lethal, Bead autofluor, Mtb hypoxia rep, Mtb hypoxia rep growth
> Cc1ccnc(NC(=O)c2ccc(S(=O)(=O)c3ccccc3)cc2)c1
    5.7, 1.3, -19.7, 2.1, 2189, -3.7, 10.1
> COC(=O)c1ccc(NC(=O)COc2ccc(C3C(C#N)=C(N)Oc4c3ccc3ccccc43)cc2OC)cc1 (stereo not drawn)
    -34.1, -3.4, -6.6, -7.5, 4068, -4.4, 3.4
> CC(=NNC(=O)c1ccc(CSc2nncn2C)cc1)c1ccc2ccccc2c1
    5.3, 5.3, x, x, x, 6.7, 6.4
> CSCC[C@H](NC(=O)C1CCC(CNC(=O)[C@@H](N)Cc2ccccc2)CC1)C(=O)O (stereo partly drawn)
    -0.4, 2.8, x, x, x, -0.4, -7.8
> Cc1ccc(C)c(NC(=S)/C(=C(\[O-])c2ccc(Cl)s2)[n+]2ccccc2)c1
    -1.3, 4.3, -5.3, -0.4, 4377, -6.0, 0.5
> COc1cc(/C=N/N=C(N)N)ccc1OCc1ccccc1Cl
    x, x, -22.3, 5.0, 2629, x, x
> CCc1ccc(CNC(=O)C(=O)NCCc2ccc(OC)c(OC)c2)cc1
    3.8, 2.3, -19.9, 5.9, 2999, x, x
> CCOc1ccc(S(=O)(=O)Oc2ccc3ccccc3c2)cc1
    66.6, 14.6, -12.7, -9.0, 2165, 0.5, 5.3
> Cc1ccccc1NC(=O)COC(=O)c1n[nH]c(=O)c2ccccc12
    17.3, 5.3, -19.9, x, 6458, 10.2, 1.9
> Cc1ccc(/C=N/N2C(=S)SC(C)(C)C2N(O)C(=O)Nc2ccc([N+](=O)[O-])cc2)cc1 (stereo not drawn)
    x, x, -8.7, 1.3, 3023, x, x
> CCCn1c(N)c(Sc2ccc(C)cc2)c(=O)n(CCC)c1=O
    4.8, 6.0, -15.1, -1.7, 4402, 3.1, 11.2
> CC(C)Cn1c(-c2ccncc2)n[nH]c1=S
    0.1, 1.3, 2.0, 10.5, 4421, 3.9, 9.8
> CNCCCCOc1ccccc1-c1ccccc1
    0.0, 3.3, -17.2, -4.5, 2033, 11.6, -0.8
> O=c1c2c3c(sc2nc2n1CCC2)CCC3
    10.4, 3.7, -14.3, 21.1, 2841, 7.4, 11.9
> O=S(=O)(Nc1ccccn1)c1ccc(Cl)c2ccccc12
    3.9, 5.3, -18.0, 1.0, 3435, 5.1, 5.4
> CCOC(=O)C1CCN(c2c(NCCN3CCCCC3C)c(=O)c2=O)CC1 (stereo not drawn)
    9.6, 7.0, 34.9, -0.1, 5716, 0.5, -0.6
> Cc1ccccc1C(=O)O/N=C(\N)c1ccc([N+](=O)[O-])cc1
    1.9, 1.9, -57.9, -19.7, 4037, -7.6, -2.0
> CC(C)C(NC(=O)C(NC(=O)C1O[C@@H]2OC(C)(C)O[C@@H]2[C@H]2OC(C)(C)O[C@@H]12)C(C)C)C(=O)O (stereo partly drawn)
    1.8, 0.7, -9.3, -10.9, 1908, -10.0, 10.6
> COc1ccc(CNC(=O)CN2CCN(c3ccccc3O)CC2)cc1OC
    0.1, -0.9, -12.2, 5.4, 3971, -0.4, 0.4
> COc1cc2c3c(c1)/C(=C1/SC(=S)NC1=O)C(=O)N3C(C)(C)C=C2C
    -1.8, 3.3, -21.6, -0.5, 2544, 11.6, 11.4
> CC(=O)OCCc1c2ccccc2c(CCCN(C)C)c2ccccc12
    -1.0, -2.9, -14.3, 1.9, 6125, 0.9, 18.7
> CCOC(=O)N1CCN(Cc2nc3cc(NC(=O)CC)ccc3n2CC)CC1
    2.4, 0.8, -25.0, 11.0, 3230, 15.9, 8.6
> CCCCN1CC(=O)N2C3c4ccc(OC)cc4OCC3C(c3ccccc3)[C@]2(C)C1=O (stereo partly drawn)
    -2.3, 3.2, x, x, x, -9.5, -10.3
> CN(C)c1nc(N/N=C/c2ccccc2O)nc(Nc2ccc(F)cc2)n1
    x, x, -1.0, -6.4, 4518, x, x
> O=C(COC(=O)CSc1ccc2ccccc2c1)NCc1ccc2c(c1)OCO2
    -1.7, 8.2, -26.4, -9.2, 2641, x, x
> CCOC(=O)C1C2COc3cc(OC)ccc3C2N2C(=O)CN(Cc3ccco3)C(=O)[C@@]12C (stereo partly drawn)
    -8.4, 5.3, x, x, x, 2.5, 6.3
> Cc1csc(N(C(=O)c2ccccc2F)c2ccccc2)n1
    -2.6, -2.1, -10.5, 4.3, 2638, 0.8, -1.5
> COc1ccc(N=C(c2ccccc2)c2c(C)[nH]n(-c3ccccc3)c2=O)c(OC)c1
    27.7, -7.1, -2.6, 3.4, 4378, -2.2, 9.4
> COc1ccc(NC(=O)C(CCSC)NC(N)=O)cc1NS(=O)(=O)c1ccc(F)cc1 (stereo not drawn)
    8.3, 4.3, -8.4, 1.8, 4436, 14.4, 4.4
> Cc1cc(=O)[nH]c(SCCOc2ccc(OC(C)C)cc2)n1
    6.8, 3.0, -1.8, 6.6, 4312, 4.0, 10.6
> O=C(CN1C(=O)c2cccnc2Oc2ccc(Cl)cc21)Nc1ccccc1F
    -3.5, 1.0, -28.4, -10.5, 7735, x, x
> CC(C)(C)OC(=O)NCCCCCNC(=O)c1[nH]cnc1C(=O)NC1CCN(C(=O)OC(C)(C)C)CC1
    -15.0, 4.0, -0.6, x, 3564, -2.8, 11.6
> O=C(Nc1ccc(Br)cc1F)C1CC(=O)N(C2CCCCC2)C1 (stereo not drawn)
    9.8, -0.5, 2.4, 5.2, 4956, 4.7, 4.9
> Cc1noc(C)c1COc1ccccc1C(=O)N1CCN(c2cccc(C(F)(F)F)c2)CC1
    2.3, 4.6, -22.4, x, 3648, -1.7, 4.8
> CCCn1c(N)c(C(=O)CSc2nc3ccccc3s2)c(=O)[nH]c1=O
    3.2, 10.0, -15.6, 16.3, 3917, 13.7, 11.3
> CC(C)C[C@H](N)c1cn([C@@H](Cc2ccc(O)cc2)C(=O)N2CCNCC2)nn1
    -0.7, -7.8, 1.2, 1.9, 4212, 4.1, 12.2
> CSc1nnc(C)c(=O)n1COC(=O)c1ccc(S(=O)(=O)N2CCOCC2)cc1
    -5.2, 1.3, -12.1, -3.8, 2564, 3.7, 15.2
> Cc1ccccc1CS(=O)(=O)c1snnc1C
    5.5, 7.2, -25.6, -10.4, 4327, 9.6, 11.7
> Cc1c(NC(=O)c2nn3c(C(F)(F)F)cc(-c4ccccc4)nc3c2Cl)c(=O)n(-c2ccccc2)n1C
    9.6, 2.7, -14.0, 9.8, 2196, 2.3, 6.5
> CC(=O)Nc1ccc(S(=O)(=O)n2nc(-c3ccc(C)cc3)nc2N)cc1
    -1.5, -1.2, -13.2, 5.2, x, x, x
> N#CCNC(=O)C1c2ccccc2Oc2ccccc21
    6.4, -1.4, -52.1, -15.1, 3712, 4.5, 2.7
> CC(C)Cc1cc(C(=O)Nc2ccccc2)c2ccccc2n1
    5.6, 0.6, -35.6, -25.8, 3635, -8.9, 4.2
> CCOC(=O)N1CCN(C(=O)C2CCCN(S(=O)(=O)c3ccccc3)C2)CC1 (stereo not drawn)
    1.1, 1.7, -16.6, -0.1, 11257, 2.6, 4.1
> O=C(NN=Cc1ccc(Br)cc1)c1ccc(F)cc1
    -5.1, 3.5, x, x, x, 7.2, 8.7
> COc1cc(NC(=O)c2ccnnc2)cc(C(=O)Nc2cccc(C(F)(F)F)c2)c1
    7.2, 5.3, -8.3, -6.6, 3471, -1.6, 10.7
> COc1ccccc1N1CCN(C(=O)c2ccc3c(Cl)c4c(nc3c2)CCCC4)CC1
    -16.6, 8.7, 1.5, 7.3, 6416, -0.4, 7.7
> COc1ccc(N(CC(=O)NN=C2CCCC2)S(=O)(=O)c2ccccc2)cc1
    -0.9, -0.5, -4.6, -5.1, 11032, -7.8, 6.5
> CCn1cc(C(=O)NCCCN2CCCC2)c(=O)c2cc(S(=O)(=O)N3CCc4ccccc4C3)ccc21
    2.2, 1.4, -37.2, 3.8, 6193, 12.1, 2.5
> Cc1[nH]c2ccccc2c1/C=C/c1nc2ccccc2c(=O)n1-c1ccc([N+](=O)[O-])cc1
    -4.2, -2.7, 2.8, -11.1, 2518, -1.7, 2.3
> COc1ccc(NS(=O)(=O)c2cccs2)cn1
    6.0, -2.5, -28.6, -6.6, 4325, -1.7, -1.2
> CCOc1cc(/C=N/NC(=O)c2ccccn2)ccc1OC(=O)c1cccs1
    x, x, -5.6, -3.0, 5521, x, x
> COc1ccc(C)cc1Nc1n[n+](-c2ccccc2)c(-c2ccc(N(C)C)cc2)s1
    10.4, -1.7, -6.5, 7.7, 7061, 1.7, 16.1
> COc1ccc(CNc2ccc(S(N)(=O)=O)cc2)c(OC)c1OC
    -8.4, -2.7, -12.0, -0.2, 10982, -6.8, 8.3
> CC(C)NS(=O)(=O)c1ccc(CCC(=O)O)cc1
    -0.4, 5.0, -14.2, -3.9, 2881, x, x
> COc1ccc(-c2nn(-c3ccccc3)cc2/C=C\C(=O)N2CCOCC2)cc1[N+](=O)[O-]
    x, x, -16.9, 12.9, 2663, x, x
> CN1CCN(C(=O)c2ccc(N(Cc3ccc(Cl)cc3)S(C)(=O)=O)cc2)CC1
    0.5, 3.3, -2.2, -5.7, 8754, -9.4, 1.3
> COc1ccccc1CN(C(=O)CNC(=O)c1ccco1)C(C(=O)NCC1CCCO1)c1ccccc1 (stereo not drawn)
    0.7, 3.2, -13.1, 12.6, 3872, 15.8, 5.3
> O=C(N/N=C/c1ccco1)c1ccccc1OCc1ccc(Br)cc1
    x, x, -4.8, 11.5, 2018, x, x
> COc1ccc2[nH]c3c(c2c1)CCN1C(=O)C(CC(=O)NCc2cccc(C(F)(F)F)c2)C[C@H](C(=O)N2CCCCC2)[C@@]31CCc1ccccc1 (stereo partly drawn)
    -0.2, 2.1, -14.9, x, 2883, -11.1, -4.5
> Cc1ccccc1C(=O)N/N=C/c1ccccn1
    x, x, -67.1, -3.5, 2537, x, x

The listing continues:
Each structure is followed by: ugtP null kill, RN4220 kill, PrP UTR inh, BJeLR lethal, Bead autofluor, Mtb hypoxia rep, Mtb hypoxia rep growth
> CCCn1c(N)c(C(=O)CSc2nc3ccccc3n2CCC#N)c(=O)n(C)c1=O
    -3.7, 2.7, -5.6, -2.2, 4768, x, x
> O=C(CN1CCOCC1)NNc1nc(-c2ccccc2)c2cc(Br)ccc2n1
    12.3, 1.2, -1.2, -3.2, 2912, 10.0, 7.2
> N#CC(c1ccc(O)cc1)c1ncc(C(F)(F)F)cc1Cl (stereo not drawn)
    8.7, 6.9, -10.0, 3.8, 4264, -1.4, 11.9
> O=S(=O)(NC1CC1)c1ccc(S(=O)(=O)N2CCCC(c3nc(-c4cccnc4)no3)C2)cc1 (stereo not drawn)
    6.6, 5.7, 6.4, 13.9, 10638, 1.9, 1.4
> CSc1cccc(NC(=O)Nc2ccc(Cl)cc2)c1
    -34.7, -8.7, -28.9, 6.6, 2379, x, x

By substructure: the compounds so far containing a nitro group on carbon
Each structure is followed by: ugtP null kill, RN4220 kill, PrP UTR inh, BJeLR lethal, Bead autofluor, Mtb hypoxia rep, Mtb hypoxia rep growth
> Cc1ccc(/C=N/N2C(=S)SC(C)(C)C2N(O)C(=O)Nc2ccc([N+](=O)[O-])cc2)cc1 (stereo not drawn)
    x, x, -8.7, 1.3, 3023, x, x
> Cc1ccccc1C(=O)O/N=C(\N)c1ccc([N+](=O)[O-])cc1
    1.9, 1.9, -57.9, -19.7, 4037, -7.6, -2.0
> Cc1[nH]c2ccccc2c1/C=C/c1nc2ccccc2c(=O)n1-c1ccc([N+](=O)[O-])cc1
    -4.2, -2.7, 2.8, -11.1, 2518, -1.7, 2.3
> COc1ccc(-c2nn(-c3ccccc3)cc2/C=C\C(=O)N2CCOCC2)cc1[N+](=O)[O-]
    x, x, -16.9, 12.9, 2663, x, x
